# Screening data as filed in PubChem BioAssay.
# Vaccinia Venus: inhibitors of vaccinia virus (Venus reporter); Vaccinia virus Venus reporter expression, fluorescence; Potency, µM (titrated, usually from 36.5 µM), for the others: at the top dose activity change, negative = inhibition, usual class: inhibitors; 330,000 compounds, 0.46% hits; AID 720580; active means well fitted inhibition curve with a large enough effect; inconclusive means small, poorly fitted or top-dose-only effect; inactive means no such curve, though single readings can be large or run the other way; tested in A549 cells; note: nearly all actives have a fitted effect of over 30% in size; inactives centre near -10
# Vaccinia mCherry: inhibitors of vaccinia virus infection (mCherry reporter signal). Vaccinia virus mCherry reporter infection, fluorescence; about a quarter of the inactives have no number. Potency, µM (titrated, usually from 36.5 µM), for the others: at the top dose activity change, negative = inhibition, most hits filed as inhibitors. 310,000 compounds, 0.63% hits. AID 720579; active = well fitted inhibition curve with a large enough effect; inconclusive = small, poorly fitted or top-dose-only effect; inactive = no such curve, though single readings can be large or run the other way; tested in A549 cells; note: nearly all actives have a fitted effect of over 35% in size; inactives centre near -10
# * = called active by the depositor; i = inactive; ? = inconclusive; / = not tested or not shown; & = joins results of further samples; [ ] = dose if it differs, or a comment. % is set by controls: 0 for no effect and ±100 for the full control effect; potency is the fitted concentration of half-maximal effect.
SMILES,Vaccinia Venus,Vaccinia mCherry
COc1ccc(C)cc1NC(=S)N1CCN(c2ncccn2)CC1,1%,1%
CN(C)c1ccc(NC(=O)CCN2CCN(c3ccccn3)CC2)cc1,-7%,-7%
COc1ccc(S(=O)(=O)n2ccnc2)cc1C(C)(C)C,-6%,9%
Cc1ccc(Sc2ccc(N)cc2C#N)cc1,6%,-19%
C=CCNc1nc(Cl)nc(Nc2ccc(OC)cc2OC)n1,-27%,-11%
CC1=CC(C)(C)n2c(O)c(N=NC(N)=S)c3c(C)ccc1c32,?,1.3µM*
O=C(NNC(=O)C12CC3CC(CC(C3)C1)C2)c1cccc(O)c1,-9%,21%
CCc1ccc(OCCNC(=O)c2cc(SC)ccc2Cl)cc1,-14%,-2%
O=C(NCc1ccc(F)cc1)c1cc(C2CCCCN2C(=O)CCc2ccccc2)on1 (stereo not drawn),-5%,i
COc1ccccc1OCc1cc(-c2ccccc2)no1,-6%,-11%
CCCn1c2c(c(=N)c3c1CCC3)CCC2,-25%,-11%
CCCCNC(=O)/C(C#N)=C/c1ccc(F)cc1F,-22%,-6%
CCCCCn1c(Br)nc2c1c(=O)n(CC(N)=O)c(=O)n2C,-11%,-5%
Cc1ccc(OCC(=O)NCC2(N3CCN(C)CC3)CCCCC2)cc1,3%,-8%
CCc1cccc(C)c1NC(=O)Cc1ccsc1,-4%,?
COc1ccc(-c2c(C(F)(F)F)nn(C)c2NC(C)=O)cc1,-5%,i
Cc1cccc(NS(=O)(=O)c2cccc([N+](=O)[O-])c2)n1,-1%,i
Cc1ccc2c(N)[nH]nc2n1,-4%,-3%
Cc1c(Cl)cccc1NC(=O)c1ccc2snnc2c1,-1%,7%
Cc1ccc(C(=O)OCC(=O)N2CCOCC2)c(C)c1,-6%,-7%
CCn1c(=O)cc(OCC(=O)Nc2cc(Cl)c(OC)cc2OC)c2ccccc21,-8%,-12%
COc1ccc(S(=O)(=O)NCCc2csc(-c3ccc(F)cc3)n2)cc1F,-17%,-22%
C/C(=N\Nc1nc(N)cc(Cl)n1)c1cccc(N)c1,-16%,-26%
CCOC(=O)c1sc(NC(=O)COC(=O)C(CCSC)NC(C)=O)nc1C (stereo not drawn),3%,-20%
NS(=O)(=O)c1ccc(Nc2nc(-c3ccc(O)cc3)cs2)cc1,-10%,-23%
# (listing goes on)
SMILES,Vaccinia Venus,Vaccinia mCherry
CCOc1ccccc1NC(=O)C1CCCN(S(=O)(=O)c2ccc(OC)c(C)c2)C1 (stereo not drawn),-12%,/
CCOC(=O)C1C(=O)NC(SCC(=O)Nc2nccs2)=C(C#N)C1c1ccccc1OCC (stereo not drawn),22%,-10%
CN1CCN(CCCOc2ccc(-c3ccccc3)cc2)CC1,-19%,-7%
COc1nc(NS(=O)(=O)c2ccc(C)cc2)nc(C)c1Cl,1%,-12%
COc1ccc(C(CNC(=O)Cc2ccc(Cl)c(Cl)c2)N2CCCCC2)cc1 (stereo not drawn),-20%,-25%
CCOC(=O)N1CCN(C(=O)c2ccccc2N(Cc2ccccc2)S(=O)(=O)c2ccccc2)CC1,-2%,-9%
CCN(NC(=O)C(O)(c1ccc(F)cc1)c1ccc(F)cc1)C(=O)c1ccccc1,-7%,-17%
O=C(NC1CC(=O)N(c2cccc(F)c2)C1)C1CCCCC1 (stereo not drawn),-10%,-3%
S=C(NCCc1ccccc1)Nc1ccccc1Cl,2%,i
O=C(Nc1ccccc1)N(C1=NCCC1)c1ccccc1,2%,i
O=C(OCc1ccccc1)N1CCC2CC1c1cc(NCCc3ccccc3)ccc12 (stereo not drawn),12%,0%
Cc1ccc(CN2CCc3nc(Nc4ccc5c(c4)OCCO5)ncc3C2)cc1,1%,-14%
COc1ccc(S(=O)(=O)NC(C)C(=O)NCC2CCCO2)cc1OC (stereo not drawn),-8%,-21%
CCCCN(C(=O)c1ccc(C)c(S(=O)(=O)N2CCOCC2)c1)c1c(N)n(CC(C)C)c(=O)[nH]c1=O,-7%,-3%
Cc1cc(C)c(C#N)c(SCC(=O)Nc2ccccc2)n1,-6%,i
COC(=O)c1ccc(COc2ccc(-c3nnn(CC(N)=O)n3)cc2)cc1,7%,-11%
COC(=O)c1cc(Br)c(=O)n(Cc2ccc3c(c2)OCO3)c1,-11%,/
O=C(NCCO)c1ccc(CSc2nc3ccccc3[nH]2)cc1,8%,-6%
CCNC(=O)CC(=O)Nc1ccccc1C(=O)O,-6%,-13%
O=C(Cn1c(=O)n(-c2ccccc2)c(=O)c2ccc(C(=O)NCc3ccc4c(c3)OCO4)cc21)Nc1ccc(Br)cc1,-11%,4%
C/C(=N/NC(=O)CNc1ccc(C)cc1)c1ccc(Cl)cc1,-6%,-18%
COc1ccc(-c2noc(CN(C(=O)COc3cc(C)c(Br)c(C)c3)C(C)C)n2)cc1,-14%,i
O=C(CCNS(=O)(=O)c1ccc(Br)s1)NCc1ccc2c(c1)OCO2,8%,-21%
O=C(Cn1cc(S(=O)(=O)c2ccccc2)c(=O)c2cc3c(cc21)OCO3)Nc1ccccc1,-4%,1%
COc1cc(OC)cc(-c2nc3nc(C)c(CCC(=O)Nc4ccc(F)cc4F)c(C)n3n2)c1,0%,6%

# Some of the entries above, reformatted.
canonical_smiles | Vaccinia Venus | Vaccinia mCherry
O=C(NC1CC(=O)N(c2cccc(F)c2)C1)C1CCCCC1 (stereo not drawn) | -10% | -3%
S=C(NCCc1ccccc1)Nc1ccccc1Cl | 2% | i

# Reformatted: six of the compounds above
# Each structure is followed by: Vaccinia Venus	Vaccinia mCherry
CCCCN(C(=O)c1ccc(C)c(S(=O)(=O)N2CCOCC2)c1)c1c(N)n(CC(C)C)c(=O)[nH]c1=O
    -7%	-3%
Cc1cc(C)c(C#N)c(SCC(=O)Nc2ccccc2)n1
    -6%	i
COC(=O)c1ccc(COc2ccc(-c3nnn(CC(N)=O)n3)cc2)cc1
    7%	-11%
COC(=O)c1cc(Br)c(=O)n(Cc2ccc3c(c2)OCO3)c1
    -11%	/
O=C(NCCO)c1ccc(CSc2nc3ccccc3[nH]2)cc1
    8%	-6%
CCNC(=O)CC(=O)Nc1ccccc1C(=O)O
    -6%	-13%

# More records.
SMILES,Vaccinia Venus,Vaccinia mCherry
C#CCOc1c(Br)cc(/C=C2/C(=O)ON=C2C)cc1OC,6%,-9%
Cc1ccc(N=C2N=C(N)c3ccccc32)c(C)c1,?,?
C/C(=N/NC(=O)c1ccc(-c2ccccc2)cc1)c1cc(O)cc(O)c1,-22%,-22%
CCC[C@H]1CC(=O)C=C(c2ccsc2)ON1C(=O)OC(C)(C)C,-6%,-11%
COc1cc(=O)[nH]c(SCc2c(F)c(F)c(F)c(F)c2F)n1,?,?
NC(CSC(c1ccccc1)(c1ccccc1)c1cccc2ccccc12)C(=O)O (stereo not drawn),-1%,i
COC(=O)C[C@@H]1CC[C@H](NC(=O)Nc2cccc(F)c2)[C@@H](CO)O1,1%,-2%
COc1ccc(C(=O)NC(=S)Nc2ccc3c(c2)Cc2ccccc2-3)cc1,-17%,/
O=C(c1ccc2c(c1)N(Cc1ccccc1F)C(=O)c1ccccc1S2(=O)=O)N1CCCC1,-8%,-2%
CN(c1ccccc1)c1ncnc2c1cnn2C,-7%,-4%
COc1cccc(Nc2nc(-c3sc(NC(=O)c4ccccc4)nc3C)cs2)c1,?,-27%
O=C(CCNS(=O)(=O)c1ccc(Br)cc1)NCC(c1cccs1)N1CCOCC1 (stereo not drawn),-16%,i
O=C(NCc1ccc(F)cc1)C1CCCN1C(=O)NCc1ccccc1 (stereo not drawn),3%,-6%
COc1cccc(NC(=O)Nc2cccc(-c3cn4cccnc4n3)c2)c1,-5%,-2%
CC1CCCC(C)N1C(=O)COC(=O)CNC(=O)c1ccc(Cl)cc1Cl (stereo not drawn),-13%,i
CC1(C)C(C(N)=O)C(=O)NC(=O)C1C(N)=O (stereo not drawn),-4%,-10%
Cc1nc2cc(NCc3nc4ccccc4n3Cc3ccccc3)ccc2n1C,-9%,?
O=C(Nc1ccc(Cl)c(Cl)c1)N1CCSC1c1ccco1 (stereo not drawn),-28%,?
Cc1cccc(C)c1NC(=O)C(c1ccccc1)n1c(=O)c(-c2ccccc2)nc2ccccc21 (stereo not drawn),-21%,?
COc1ccc(NC(=S)N(CCCN2CCOCC2)Cc2cn(C)c3ccccc23)cc1OC,-18%,-27%
Cc1cccc(NC(=O)CCCCC(=O)Nc2cccc(C)c2)c1,-3%[7.34 µM],-12%[7.34 µM]
C(=Cc1cccnc1)c1ccncc1,-3%,i
CCOC(=O)c1c(NC(=O)c2cccs2)sc2c1CCC2,-9%,-13%
Cc1ccccc1OCCCN1C(=O)C(=O)c2cccc(C)c21,-20%,-8%
CCOC(=O)N1CCN(c2cc(NCCC(=O)O)c3c4c(onc24)-c2ccccc2C3=O)CC1,429%[activator],44%[activator]
# Going on with the list:
SMILES,Vaccinia Venus,Vaccinia mCherry
CCN(CCCNC(=O)Cn1ncc2c([nH]c3ccc(C)cc32)c1=O)c1ccccc1,-3%&-12%,-7%
Cc1ccccc1C(=O)NC(=S)Nc1ccccc1C(F)(F)F,2%,-3%
Cc1ccc(Nc2nc(C(N)=O)c(NC(=O)c3ccccc3Br)s2)cc1,-22%,-4%
COc1ccc(OC)c(/C=C2\SC(=S)N(Cc3cccnc3)C2=O)c1,-1%,i
Cc1nc2sccn2c(=O)c1S(=O)(=O)N1CCN(c2ccc(F)cc2)CC1,-9%&-8%,18%&-9%
COc1ccc(C(=O)NC(=S)Nc2ccc3oc(=O)ccc3c2)cc1[N+](=O)[O-],-12%,-10%
COc1ccc(C)cc1NC(=O)CCCNC(=O)Cn1cnc2sc(C)c(C)c2c1=O,-4%,-19%
CCOC(=O)C1CCN(C(=O)Nc2ccc3snnc3c2)CC1,-8%,-12%
CC1C(=O)N(Cc2cn(CCC3OCCCO3)nn2)CCS(=O)(=O)N1Cc1ccc(-c2ccc(F)nc2)cc1 (stereo not drawn),-14%,-3%
NC(=O)c1c(NC(=O)C2CCCO2)sc2c1CCCCC2 (stereo not drawn),-3%,i
O=C(Nc1nc2n(n1)C(c1ccc(F)cc1)C=C(c1ccccc1)N2)c1cccc([N+](=O)[O-])c1 (stereo not drawn),-6%,-8%
O=S(=O)(NCC(c1ccc2c(c1)OCO2)N1CCN(c2ccccc2)CC1)c1ccccc1 (stereo not drawn),-9%,-21%
Cc1ccc2cc3cc(C(=O)NCCC(C)C)oc3nc2c1,-8%,-16%
COc1ccc(-c2nc(N3CCOCC3)nc3n[nH]c(N)c23)cc1,?,?
COc1cc(-c2nnc(SCc3cc(=O)oc4cc(C)ccc34)o2)cc(OC)c1OC,-26%,?
O=C(Nc1cccc(F)c1)c1ccc(-n2cncn2)c2ccoc12,-6%,34%[activator]
CCOc1ncccc1C(=O)Nc1ccc(F)c(F)c1,-7%,-17%
CN1C2=NCCN2C(=O)c2ccccc21,5%,1%
Cn1c(SCc2nnc(-c3ccc(F)cc3)o2)nnc1C1COc2ccccc2O1 (stereo not drawn),-19%,-23%
CC1(C(=O)NCc2cccs2)CCN1CCc1ccccc1 (stereo not drawn),12%,21%
Cc1ccc(O)c(C(CCN(C(C)C)C(C)C)c2ccccc2)c1 (stereo not drawn),-6%,-16%
O=C(CSc1nc2c([nH]c3ccccc32)c(=O)n1-c1ccccc1)N1CCCc2ccccc21,-10%,-9%
O=C(Cc1cccc(NC(=O)C2CCN(C(=O)CCc3ccccc3)CC2)c1)Nc1cccc(C(=O)N2CCOCC2)c1,-14%,i
CCCCc1c(O)nc(SCC(=O)NCCc2ccc(OC)c(OC)c2)[nH]c1=O,3%,/
COc1ccc(-n2nc(C(=O)Nc3ccc(OC)c(OC)c3)c3c4ccccc4n(C)c3c2=O)cc1,-19%,i
# (cont.)
SMILES,Vaccinia Venus,Vaccinia mCherry
O=C(CC(=O)Nc1nc(C23CC4CC(CC(C4)C2)C3)cs1)NCCO,14%,3%
Cc1ccc(C)c(OCCn2cc(C(=O)c3ccco3)c3ccccc32)c1,-13%,-21%
CCOc1ccccc1C1N(c2ccc(OC)cc2)C(=O)C2CCCN21 (stereo not drawn),-7%,-9%
CCCC(Oc1ccc(Br)cc1)c1nc2c3cc(OC)c(OC)cc3nc(=S)n2[nH]1 (stereo not drawn),0%,i
CC(C)OP(=O)(c1ccc(N(C)C)cc1)C(Nc1ccccc1)c1cccnc1 (stereo not drawn),-15%,i
O=C(CNCCc1ccc(Cl)cc1)Nc1ccc(C(=O)N2CCCCC2)cc1,-15%,43%[activator]
Brc1ccc2[nH]cc(/C=N/N3CCCCC3)c2c1,-27%,-11%
CC(C)CN(C(=O)COC(=O)c1ccccc1NCc1ccco1)c1c(N)n(Cc2ccccc2)c(=O)[nH]c1=O,-9%,-4%
CCC(C(=O)NC1CCCC1)N(C(=O)Cn1nnc(-c2ccc(C)o2)n1)c1ccccc1OC (stereo not drawn),0%,-21%
Cc1ccc(-c2nc(N3CCOCC3)sc2C(=O)N2CCOCC2)cc1,-20%,-13%
N=C(CC(O)COc1ccccc1-c1ccccc1)N1CCCCC1 (stereo not drawn),-23%,-11%
CCOc1ccc(-c2nnc(SCC(=O)NCCc3ccccc3)nc2-c2ccc(OCC)cc2)cc1,-14%,-22%
O=C(Nc1ccc(F)cc1)c1ccc2c(=O)n3c(nc2c1)CCCCC3,-8%&-23%,-7%&-25%
COc1ccc(CCNC(=O)c2nn(C)c3c2CSc2ccccc2-3)cc1OC,-15%,-21%
COC(=O)c1ccccc1NC(=O)c1noc2c1CCC2,-3%,-11%

# Three entries from above, bar-delimited:
mol | Vaccinia Venus | Vaccinia mCherry
Brc1ccc2[nH]cc(/C=N/N3CCCCC3)c2c1 | -27% | -11%
COC(=O)c1ccccc1NC(=O)c1noc2c1CCC2 | -3% | -11%
CCOc1ccccc1C1N(c2ccc(OC)cc2)C(=O)C2CCCN21 (stereo not drawn) | -7% | -9%

# An unsorted share of the library; 0.86% or so of the library scored in one or more.
